# Biofilm kill mix: mixture kills Candida albicans biofilm cells; 120,000 tested, 0.02% active; inhibition, % at 7.6 µM; C. albicans biofilm persisters + clotrimazole, fluorescence viability; primary screen in compound mixtures of four per well;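 active = inhibition above 30.3% in the primary screen of four-compound pools, then above 30% when the compound was retested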;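 also: compounds exposed to preformed 24 h biofilms for 48 h; the number belongs to the whole pool; some results filed as inactive read as strong as hits; inactives centre near 12; 0% = biofilm with clotrimazole alone and 100% = kill control; retested singly at about 60 µM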
#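 Test system: C. albicans CAF4-2 wild-type biofilms; buffer or medium: RPMI/MOPS medium, pH 7.0; schedule: 24 h biofilm formation, then 48 h compound exposure, 37 °C; detection: Alamar Blue fluorescence; measure: percent inhibition of biofilm viability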
# Active calls of the source: *. Only part of the results is shown; rates above refer to the full screens.
SMILES,Biofilm kill mix
CCOC(=O)C1(CCCc2ccccc2)CCN(CCCn2cccn2)CC1,-0.5
Cc1cc([N+](=O)[O-])nn1CC(=O)Nc1ccc(F)cc1,13.5
Cc1ccc(C(=O)N2CCN(C(=O)c3ccco3)CC2)cc1NC(=O)c1ccco1,13.6
CS(=O)(=O)C1=NSC2=NC(=O)/C(=C\c3cccn3-c3ccccc3Cl)C(=N)N21,-22.7
COc1ccc(NC(=O)CN2CCc3ccccc3C2)cc1OC,11.7
Cc1cccc(S(=O)(=O)NNC(=O)Cc2cccn2C)c1,-12.1
CCNS(=O)(=O)c1ccc(CCC(=O)NCCC2=CCCCC2)cc1,8.7
COc1cccc(NC(=O)CN(C)C(C)C(=O)Nc2ccc(C#N)cc2)c1 (stereo not drawn),14.9
COc1ccc(S(=O)(=O)NCCSCc2ccco2)cc1C,15.9
CCn1cc(CN2CCc3c([nH]c4ccccc34)C2c2cccc(OC)c2)c(C)n1 (stereo not drawn),10.5
Cc1ccc(SC(C)C(=O)NCc2ccc(F)cc2)cc1 (stereo not drawn),22.2
Cc1ccc(SCC(=O)Nc2ccc(C(=O)Nc3ccc(O)cc3)cc2)cc1,18.4
CCC(=O)Nc1ccc(C(=O)Nc2ccc(Br)cc2F)cc1,6.8
CCCNC(=O)Nc1nc(CC(=O)OCC)cs1,11.0
O=C(NC1CC1)C1=C[C@@H](c2coc3ccccc3c2=O)C[C@@H](OCc2ccc(CO)cc2)O1,17.0
Cc1ccc(NC(=O)CCn2ccc([N+](=O)[O-])n2)nc1,3.8
COc1cc(C(=O)Nc2cc(C(F)(F)F)ccc2-n2cncn2)cc(OC)c1OC,17.3
C/C(=N\NC(=S)Nc1cccc(C)c1)c1ccco1,3.8
Nc1nc(SCC(=O)Nc2ccc(Cl)c(S(=O)(=O)N3CCOCC3)c2)n[nH]1,8.4
COC(=O)c1cnc(Oc2c(Cl)cc(N)cc2Cl)cc1C(F)(F)F,21.1
COc1ccc(OC)c(-c2csc(NC(=O)C3=NNC(=O)CC3)n2)c1,15.0
Cc1cc2nc[nH]c2cc1[N+](=O)[O-],8.2
O=C1N/C(=N/S(=O)(=O)c2ccccc2)S/C1=C/c1cccnc1,16.4
Cc1ccc(CN2CCNC(=O)C2CC(=O)N(C)C2CCCCC2)o1 (stereo not drawn),18.1
O=C(c1ccc(Sc2cccc(Cl)c2)c([N+](=O)[O-])c1)N1CCN(c2ccccn2)CC1,11.6
CC(SC(=S)N(C)Cc1cccs1)C(=O)O (stereo not drawn),14.6
CCOc1ccc(-n2c(SCC(N)=O)nnc2-c2cccnc2)cc1,13.4
CCCCNC(=O)/C=C/c1cccs1,16.9
O=C1CS/C(=N/N=C2CCCC2)N1,8.1
CCCCCCn1c(=O)c(C(=O)N/N=C/c2cccc(F)c2)c(O)c2ccccc21,4.2
COc1ccc(CC(=O)Nc2cc(Cl)ccc2C(=O)O)cc1,15.5
O=Cc1ccc(-c2ccc([N+](=O)[O-])cc2Cl)o1,12.0
Cc1cccc(NC(=O)C2CCCN2C(=O)Oc2ccccc2)c1C (stereo not drawn),15.2
O=C(NCc1ccccc1)C1CCN(S(=O)(=O)c2ccc(Cl)cc2)CC1,7.1
Cc1ccc(C(=O)N/C(=C/c2cccs2)C(=O)NCC2CCCO2)cc1 (stereo not drawn),5.2
NS(=O)(=O)c1ccc(N2CCCC2=O)c([N+](=O)[O-])c1,18.6
O=C(NC1CC1)c1nc2c(nnn2Cc2ccccc2Cl)c(=O)[nH]1,10.0
Cc1oc(-c2ccccc2Cl)nc1CN1CCCC1c1ccc(F)cc1 (stereo not drawn),8.9
CC1(NC(=O)C2CCCCC2)CCS(=O)(=O)C1 (stereo not drawn),19.5
Cc1nc(N)sc1C(=O)N/N=C/c1ccco1,14.3
Cc1nc(CCNC(=O)c2cccs2)cs1,9.9
CSc1nnc(C)c(=O)n1COC(=O)c1ccc([N+](=O)[O-])cc1,19.3
Cc1ccc(C(=O)N2CCN=C2SCc2ccc([N+](=O)[O-])cc2)cc1,4.5
COc1cc(C(=O)Nc2ccc(NC(C)=O)cc2)ccc1OCc1ccccc1,14.6
CCOC(=O)C1(Cc2ccccc2)CCN(Cc2ccc(C)s2)CC1,1.9

# A different layout for some results above.
smiles	Biofilm kill mix
COc1ccc(CC(=O)Nc2cc(Cl)ccc2C(=O)O)cc1	15.5
O=Cc1ccc(-c2ccc([N+](=O)[O-])cc2Cl)o1	12.0
Cc1cccc(NC(=O)C2CCCN2C(=O)Oc2ccccc2)c1C (stereo not drawn)	15.2
O=C(NCc1ccccc1)C1CCN(S(=O)(=O)c2ccc(Cl)cc2)CC1	7.1

# Next section
SMILES,Biofilm kill mix
COc1ccc2c(c1)O[C@@H](c1cccc(C(F)(F)F)c1)[C@H](O)C2=O,6.4
COc1cccc(C(=O)OCCN2CCCCC2)c1,8.7
O=C(Nc1cccc(-c2nc3ccccc3s2)c1)c1cc(=O)c2ccccc2o1,5.5
Cc1cc2cc(CNC(=O)c3ccc(S(=O)(=O)N4CCOCC4)cc3)ccc2[nH]1,-0.3
CC(OC(=O)c1ccc2ncsc2c1)C(=O)Nc1ncc(Cl)cc1Cl (stereo not drawn),16.6
Cc1ccc(NC(=O)CNc2ccc(Cl)cc2F)cc1,20.1
Cc1cccc(N2C(=O)CC(Cn3nc(C)cc3C)C2=O)c1 (stereo not drawn),25.7
CCn1c(C)nc2cc(C(=O)NNC(=S)NC(=O)c3ccc(OC)cc3)ccc21,18.7
COc1ccc(OCC(=O)NC(CC(=O)O)c2ccc(OC)c(OC)c2)cc1 (stereo not drawn),10.6
CC(=O)Nc1ccc(NC(=O)C(C)OC(=O)/C=C/c2cnc3ccccc3n2)cc1 (stereo not drawn),18.6
COCCCNC(=O)C(=O)C1C(=O)Nc2ccccc21 (stereo not drawn),17.6
O=C(O)c1ccc(N/N=C/c2cccc3cccnc23)cc1,8.5
Clc1ccc2nc(-c3ccccn3)c(Nc3ccc4c(c3)OCO4)n2c1,14.4
Cc1ccnc(NC(=O)CCC(=O)N(CC(=O)NC(C)(C)C)c2ccc(F)c(Cl)c2)c1,23.4
CCn1c(SCC(=O)Nc2ccc(OC)cc2)nnc1-c1ccco1,6.8
Cc1cc(=O)[nH]c(N/N=C/c2ccc(Br)s2)n1,8.8
CCn1nnnc1SCC(=O)c1ccc(C)cc1,-3.6
NCCc1nc(-c2ccccc2)cs1,10.9
CCC(=NCCc1ccc(OC)c(OC)c1)C1=C(O)CC(C)(C)CC1=O,9.7
CCN(CC)C(=O)c1ccc(-c2nnc(OC)c3ccccc23)cc1,29.2
NC(=O)N/N=C/c1ccc(-c2cccc(C(F)(F)F)c2)o1,6.2
COc1ccc(CCc2nnc(CCC(=O)NCc3ccc4ncccc4c3)o2)cc1,10.3
COc1ccccc1CNC(=O)c1cccc(-c2ccc(C)c3ccccc23)n1,9.3
CCN(CC(=O)NCc1ccc(Cl)cc1)CC(=O)Nc1ccc(C(N)=O)cc1,9.2
Cc1ccc2oc(-c3ccc(C)c(NC(=S)NC(=O)c4cccs4)c3)nc2c1,6.6
O=C1NC(=S)N/C1=C\c1ccccc1OCc1ccc(C(=O)O)cc1,12.6
O=C1C=C(NCc2ccc3c(c2)OCO3)CC(c2ccccc2)C1 (stereo not drawn),13.3
CCOC(=O)C1CSC(CC(=O)Nc2ccc(OCC)cc2)C(=O)N1 (stereo not drawn),11.7
Cc1cccc2cc(/C=N/NC(=O)c3ccncc3)c(Cl)nc12,16.9
Cc1cc(F)c(F)c(C(=O)N2CCC(C)CC2)c1Cl,9.6

# Continued (7 carried over from the part before).
SMILES,Biofilm kill mix
CCN(CC(=O)NCc1ccc(Cl)cc1)CC(=O)Nc1ccc(C(N)=O)cc1,9.2
Cc1ccc2oc(-c3ccc(C)c(NC(=S)NC(=O)c4cccs4)c3)nc2c1,6.6
O=C1NC(=S)N/C1=C\c1ccccc1OCc1ccc(C(=O)O)cc1,12.6
O=C1C=C(NCc2ccc3c(c2)OCO3)CC(c2ccccc2)C1 (stereo not drawn),13.3
CCOC(=O)C1CSC(CC(=O)Nc2ccc(OCC)cc2)C(=O)N1 (stereo not drawn),11.7
Cc1cccc2cc(/C=N/NC(=O)c3ccncc3)c(Cl)nc12,16.9
Cc1cc(F)c(F)c(C(=O)N2CCC(C)CC2)c1Cl,9.6
CC1CCc2sc(C(=O)Nc3ccc(C(N)=O)cc3)cc2C1 (stereo not drawn),30.3
O=C(N[C@@H](Cc1ccccc1)C(=O)O)c1ccc(C(F)(F)F)cc1,12.8
O=C(/C=C/c1ccccc1)c1ccccc1O,10.0
CCc1ccc(CCN2C(=O)c3ccccc3C2=O)nc1,14.3
CCOc1ccc(NC(=O)CSc2nc(C3CC3)nc3ccccc23)cc1,6.3
CC(=O)C1=C(O)C(=O)N(CCc2c[nH]c3ccccc23)C1c1ccccc1 (stereo not drawn),27.9
Cc1sc2nc(CN3CCCC3)nc(N3CCN(C(=O)c4ccco4)CC3)c2c1C,22.3
CCc1ccc2c(c1)cc(CN(Cc1ccco1)C(C)=O)c1nnnn12,2.0
Cc1cc(C)n(-c2cccc(CN3CCC(CO)(Cc4ccccc4)CC3)c2)n1,9.4
CSc1nc(N)n2nc(-c3ccc(Cl)cc3)cc2n1,14.2
CCCCC(=O)OCc1nc2ccccc2s1,-5.2
CCOC(=O)c1cc[nH]c1CC(=O)NC,19.9
CCOC(=O)Cc1[nH]nc2c1C(Cc1ccccc1)C(C#N)=C(N)O2 (stereo not drawn),8.4
Cc1ccc(COc2ccccc2-c2cc(C(=O)N/N=C/c3cccnc3)[nH]n2)cc1,16.9
CC(C)C(=O)O/N=C(\N)c1ccc(Oc2ccc(Cl)cc2)c([N+](=O)[O-])c1,2.5
CCC(C)[C@H]1CN=C(N)N1CCc1cc(C(F)(F)F)cc(C(F)(F)F)c1 (stereo partly drawn),22.7
CCOc1ccc(/C=N/OCC(=O)NC(c2ccccc2)c2ccccc2)cc1,10.0
O=C(CC(C(=O)O)c1c[nH]c2ccccc12)c1ccccc1 (stereo not drawn),-0.1
O=C(Nc1nc(-c2ccc([N+](=O)[O-])cc2)cs1)c1c(F)cccc1F,3.6
Cc1cc(C)nc(N/N=C/c2ccccc2OCc2cccc(Br)c2)n1,21.8
CN(C)C(=S)SCC(=O)Nc1ccc(Cl)cc1Cl,13.2
COc1cc2[nH]c(=S)nc(NCCc3ccc(C)cc3)c2cc1OC,10.3
Cc1ccc(NC(=S)NCCSc2ccc(Cl)cc2)c(C)c1,10.3
O=C(CSc1nnc(CNC(=O)C23CC4CC(CC(C4)C2)C3)n1-c1ccccc1)Nc1ccc(F)cc1,11.9
CN1C(N)=NC(=O)/C1=C/c1ccc(OC(F)(F)F)cc1,14.7
O=C(O)CCCNC(=O)c1cccc(C(=O)NCCCC(=O)O)n1,12.1
CN(C(=O)COC(=O)c1cc(S(=O)(=O)N2CCOCC2)c(Cl)cc1Cl)C1CCS(=O)(=O)C1 (stereo not drawn),-4.7
Cc1nc2cccc(C(=O)Oc3ccc([N+](=O)[O-])cc3)c2o1,-3.7
CNC(=O)c1ccsc1NC(=O)c1coc2ccccc2c1=O,16.8
COc1ccc(NC(=O)/C=N/O)cc1,11.4
NC(N)=NC1=NC(=O)C(Cc2ccccc2)S1 (stereo not drawn),27.4
CCCCNc1nc(N)nc(-c2cc(Cl)ccc2O)n1,17.3
Cc1nc(NCC2CCCO2)c2nnn(Cc3c(F)cccc3Cl)c2n1 (stereo not drawn),19.1
O=C(Nc1ccc(Cl)cc1)C1c2cccc[n+]2CC(=O)N1Cc1ccc2c(c1)OCO2 (stereo not drawn),19.8
CC12C(=O)N(NC(=O)c3ccncc3)C(=O)C1C1C=CC2C1 (stereo not drawn),12.4
CCN1CCN(C(=O)C23CCC(C)(C(=O)C2Br)C3(C)C)CC1 (stereo not drawn),25.7
O=C1/C(=C/c2ccc(O)cc2)SC(=S)N1Cc1cccnc1,14.2
O=C(/C=C/c1cn(-c2ccccc2)nc1-c1ccc2c(c1)OCCO2)NCCCN1CCOCC1,10.3
COc1ccc(CCn2c(C)c(C(C)=O)c(C(C)=O)c2C)cc1OC,-9.9
CC1CC(C)CN(CCOCCSc2ccccc2)C1 (stereo not drawn),10.5
CC(/C=N/NC(=O)Cc1cccs1)=C\c1ccccc1,19.9
Cc1ccn2c(NC(=O)c3cccs3)c(-c3ccccc3)nc2c1,17.4
CNC(=O)c1cccc2nc3ccccc3nc12,10.2
CC(C)(CO)NC12CC3CC(CC(C3)C1)C2,-22.7
Cn1c(/C(C#N)=N/O)nc2ccccc21,14.7
C=CCc1cc(C=O)cc(OCC)c1OCc1ccc(Cl)cc1,18.8
COc1ccc(COCCN2CCN(S(=O)(=O)c3ccccc3)CCC2=O)cc1,14.7
CC1=C(C#N)C(=O)NC(=O)/C1=C\c1ccc(-c2cc(C)c(C)cc2[N+](=O)[O-])o1,10.2
CCOC(=O)C1=C(O)/C(=C\c2sccc2C)N=C1C,8.0
CC(=O)Nc1ccc(N2C(C(C)=O)=NN(c3ccc(Cl)cc3)C2c2sccc2C)cc1 (stereo not drawn),13.6
O=C(Nc1cscc1S(=O)(=O)c1ccccc1)c1ccccc1Cl,19.2
COc1ccc(NC(=O)c2cccc(Oc3ccc([N+](=O)[O-])cc3Cl)c2)cc1,2.1
CCCc1nn(C)c(C(=O)Nc2ccc3ccccc3c2)c1Cl,5.7
Cc1ccc2nc(NC(=O)c3ccc(NS(=O)(=O)c4cccs4)cc3)sc2c1,23.0
CN1CCN(NC(=O)c2ccc(COc3ccccc3Br)o2)CC1,14.6
Cc1c(N=C2NN=C(c3c[nH]c4ccccc34)CS2)c(=O)n(-c2ccccc2)n1C,25.6
Cc1ccc(NC(=O)CSc2nnc(/N=C/N(C)C)s2)cc1,10.9
COc1ccc(CNC(=O)C2(c3ccc(Cl)cc3)CC2)cc1,6.4
CC(=O)c1c(C)[nH]c(C(=O)OCC(=O)Nc2cc(S(=O)(=O)N3CCCC3)ccc2Cl)c1C,4.9
CCOC(=O)C(=NCCOC)NNc1cc(Cl)ccc1Cl,15.4
CCCOc1nc2ccccc2cc1/C=C/C(=O)O,14.6

# High-throughput results deposited in PubChem by PCMD.
